Bioassay records deposited in PubChem by ICCB-Longwood Screening Facility, Harvard Medical School.
Mtb MbtI inh – inhibitors of Mycobacterium tuberculosis siderophore enzyme MbtI; P9WFX0; purified MbtI enzyme, fluorescence intensity read-out; inhibition, %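 (about 17 µg/mL by stock and volumes)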; hit rate 0.89% among 100,000; AID 493033;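 active = above 50% in both replicates, above 80% if mildly self-fluorescent; inactive = the rest, strongly fluorescent compounds included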;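 also: 0% = mean of negative and 100% = mean of positive controls; one replicate is shown; some compounds called inactive have numbers as strong as hits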
MenB inh – Mtb MenB enzyme inhibition. P9WNP5. MenB enzyme assay, absorbance read-out; some hits fall short of the stated cut. inhibition, %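 (about 12 µg/mL by stock and volumes)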. hit rate 0.43% among 100,000. AID 540299;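 active = mean of two replicates above 30%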;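 also: 0% = no compound and 100% = wells with inactive enzyme; the first replicate is given; strong numbers were not always called active; inactives centre near -10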
Target sequence (P9WNP5 whole entry, looked up): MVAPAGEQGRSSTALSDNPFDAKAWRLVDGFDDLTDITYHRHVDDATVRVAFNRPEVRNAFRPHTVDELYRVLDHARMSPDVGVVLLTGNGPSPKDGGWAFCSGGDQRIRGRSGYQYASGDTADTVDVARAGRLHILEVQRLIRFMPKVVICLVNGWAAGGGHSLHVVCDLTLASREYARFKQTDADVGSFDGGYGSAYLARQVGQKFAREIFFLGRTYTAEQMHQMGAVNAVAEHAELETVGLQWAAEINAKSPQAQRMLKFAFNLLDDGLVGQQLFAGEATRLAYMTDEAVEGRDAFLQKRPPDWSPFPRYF
PV pol inh – inhibitors of poliovirus RNA polymerase binding and polymerization; % elongation, % (compound at 16.7 µg/mL); hit rate 0.66% among 150,000; P03300; AID 588519; poliovirus polymerase elongation, fluorescence polarization; active compounds read low; in the data active = % elongation below about 90%; also: some results filed as inactive read as strong as hits
Target sequence (P03300 1749-2209 limits assumed): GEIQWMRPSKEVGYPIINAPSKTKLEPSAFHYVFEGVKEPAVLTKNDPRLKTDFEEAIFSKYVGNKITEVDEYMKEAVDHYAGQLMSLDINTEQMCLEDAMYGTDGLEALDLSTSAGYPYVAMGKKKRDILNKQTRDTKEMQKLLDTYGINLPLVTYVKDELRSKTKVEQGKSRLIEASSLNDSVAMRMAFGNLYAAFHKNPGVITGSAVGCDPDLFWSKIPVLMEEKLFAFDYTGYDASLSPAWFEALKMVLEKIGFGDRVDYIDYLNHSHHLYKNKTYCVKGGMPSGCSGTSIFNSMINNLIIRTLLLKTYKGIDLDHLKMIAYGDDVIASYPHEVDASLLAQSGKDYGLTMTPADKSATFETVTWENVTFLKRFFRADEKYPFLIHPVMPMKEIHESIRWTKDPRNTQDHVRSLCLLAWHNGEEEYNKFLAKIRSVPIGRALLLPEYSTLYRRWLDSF
PV pol inh intensity – recorded beside PV pol inh, whose call it bears; % elongation; measured here: total intensity read-out; formula for this scale not given here;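 total fluorescence in place of polarization; lower means less elongation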
* marks the source's active call; other numbers are inactive results; i = inactive; . = no result given; & = joins results of further samples. Compounds were not picked by outcome. Share with any hit: about 1.7%.

SMILES | Mtb MbtI inh | MenB inh | PV pol inh | PV pol inh intensity
O=C1CN(CC(=O)Nc2ccc(Cl)cc2)CCN1 | -10 | -89 | 101 | 104
CCCCc1nc2ccccc2n1CC(=O)Nc1ccccc1C | -8 | . | 100 | 97
COC(=O)c1ccc(CSc2nnc3ccccn23)o1 | -5 | 6 | 105 | 102
CC(C)CCNC(=O)c1ccc(CS(=O)c2cccc(Cl)c2)o1 (configuration not stated) | 6 | 1 | 101 | 102
CCN1CCN(CCCNC(=O)c2oc3ccc(S(=O)(=O)N4CCOCC4)cc3c2C)CC1 | -17 | -14 | 102 | 103
CC(NC(=O)Nc1ccc(S(N)(=O)=O)cc1)(C(F)(F)F)C(F)(F)F | -12 | 7 | 101 | 107
O=C(NCn1nnc(-c2ccncc2)n1)c1ccccc1 | -5 | -3 | 101 | 96
CCOC(=O)c1ccc(-c2ccc(-c3nc4cc(C(=O)OCC)ccc4n3CC)o2)cc1 | 119 | -28 | 152 | 168
CC1CN(S(=O)(=O)c2cn(C)c(=O)n(C)c2=O)CC(C)O1 (configuration not stated) | 1 | -20 | 101 | 109
CCCOc1ccc(-c2nn(-c3ccccc3)cc2/C=C(\C#N)C(=O)NCc2ccco2)cc1 | 14 | -33 | 107 | 106
O=C(c1ccco1)c1cn(-c2ccccc2)nc1C(=O)c1nc2ccccc2s1 | . | -28 | 106 | 111
C=CCOC(=O)COc1ccc2c3c(c(=O)oc2c1)CCC3 | 44 | -3 | 100 | 103
N#Cc1ccc(NC(=O)COC(=O)CSc2ccccc2)cc1 | 0 | -19 | 106 | 108
CC1Cc2scc[n+]2-c2ccccc2N1C=O (configuration not stated) | . | 100* | 105 | 101
C(=N\Nc1nc2ccccc2[nH]1)/C1CCCCC1 | -7 | -20 | 105 | 111
Cc1c(C(=O)O)oc2c1C(O)CC(C)(C)C2 (configuration not stated) | 2 | 10 | 102 | 102
CNC(=O)O/N=C(\N)Cc1csc2ccccc12 | -4 | 9 | 98 | 103
CCCN(CCC)C(=O)c1ccc2c(c1)N(Cc1ccccc1)C(=O)CS2=O (configuration not stated) | 3 | -28 | 100 | 101
Cc1ccc(OC(=O)NC2(C(F)(F)F)Oc3ccccc3O2)cc1 | 0 | -10 | 103 | 102
Cc1ccc(-n2cccc2)c(NC(=O)C(c2ccccc2)C2CCCC2)c1 (configuration not stated) | 82 | -3 | 102 | 107
Cc1ccc2[nH]c(=O)c(CNC3CCCC3)cc2c1 | 24 | 16 | 99 | 104
COc1ccc(C(N)CCc2ccc(C)o2)cc1 (configuration not stated) | 6 | -10 | 101 | 105
FC(F)(F)c1nc(NCCc2ccccn2)c2ccccc2n1 | -10 | -5 | 100 | 100
O=S(=O)(/N=C\c1cc(Br)ccc1O)c1cccs1 | . | -22 | 97 | 102
CNC(=O)C1CC(=O)N(C2CCCCCC2)C1 (configuration not stated) | 3 | -8 | 103 | 105
CCCCC/C=C\C/C=C\C/C=C\C/C=C\CCCC(=O)NCc1ccc(O)c(OC)c1 | -16 | -17 | 100&100 | 104&103
Cn1c(O)c(C=NC23CC4CC(CC(C4)C2)C3)c(=O)n(C)c1=O | -4 | -9 | 108 | 117
Fc1ccc(CN2CCN3CCCC3C2C2CCCCC2)cc1F (configuration not stated) | -7 | -16 | 100 | 102
COc1ccc(S(=O)(=O)Nc2ccc3[nH]ncc3c2)cc1Br | -1 | -6 | 105 | 107
O=C(Nc1cccc(C(F)(F)F)c1)C1CCCO1 (configuration not stated) | -4 | 3 | 103 | 104
O=C(O)c1cccc(Nc2nc(-c3ccccn3)cs2)c1 | 6 | -3 | 102 | 101
CCN(CC)c1ccc(NC(=O)c2ccc(Cl)s2)cc1 | -8 | . | 101 | 102
O=c1c2[nH]c3ccc(Cl)cc3c2ncn1CCCN1CCCC1 | -28 | 21 | 103 | 104
O=C(OCN1C(=O)c2ccccc2C1=O)c1cccc(S(=O)(=O)N2CCCC2)c1 | -10 | -7 | 102 | 98
C=CCOc1ccc(C(=O)O)cc1OC | -3 | -22 | 103 | 104
CC(C)COc1ccc(C(=S)N2CCCCC2)cc1 | 54* | -12 | 103 | 96
Cc1[nH]c2ccccc2c(=O)c1CNCc1ccccc1 | 10 | -14 | 106 | 106
CC1C(=O)NC(=O)N1c1ccc(Cl)cc1 (configuration not stated) | 29 | 8 | 106 | 104
CCSc1nnc(SCC(=O)c2ccc(OC)cc2OC)s1 | -22 | -15 | 104 | 96
O=C(CSc1ccc(Br)cc1)c1ccco1 | 56* | -21 | . | .
CCc1ccccc1NC(=O)CN(C)Cc1nc(N)nc(Nc2ccccc2C)n1 | 0 | -41 | 103 | 108
CC[N+](CC)(CC)CCOc1cccc(OCC[N+](CC)(CC)CC)c1OCC[N+](CC)(CC)CC | 2 | -3 | 100 | 102
CC(NC(=S)NCCN1CCCCC1)c1ccccc1 (configuration not stated) | -4 | 13 | 99 | 103
CC(SCc1nc2sc3c(c2c(=O)[nH]1)CCCC3)C(=O)Nc1nccs1 (configuration not stated) | 33 | 6 | 111 | 113
CN(C(=O)CCc1nc2ccccc2s1)c1ccccc1 | . | -14 | 103 | 106

The final 4 entries of the part before open the next one.
SMILES | Mtb MbtI inh | MenB inh | PV pol inh | PV pol inh intensity
CC[N+](CC)(CC)CCOc1cccc(OCC[N+](CC)(CC)CC)c1OCC[N+](CC)(CC)CC | 2 | -3 | 100 | 102
CC(NC(=S)NCCN1CCCCC1)c1ccccc1 (configuration not stated) | -4 | 13 | 99 | 103
CC(SCc1nc2sc3c(c2c(=O)[nH]1)CCCC3)C(=O)Nc1nccs1 (configuration not stated) | 33 | 6 | 111 | 113
CN(C(=O)CCc1nc2ccccc2s1)c1ccccc1 | . | -14 | 103 | 106
c1ccc(NC2=Nc3ccccc3CC2)cc1 | 6 | 3 | 101 | 98
O=C(OCn1nnc2ccccc2c1=O)C1CSC2(c3ccc(F)cc3)CCC(=O)N12 (configuration not stated) | 2 | -24 | 105 | 111
CCOC(=O)C(C)Sc1ncnc2c1nnn2Cc1ccc(Cl)cc1 (configuration not stated) | 7 | -32 | 99 | 100
O=C(OCc1ccc(Cl)cc1)c1ccccc1NCc1ccco1 | 108 | -17 | 106 | 102
CCOc1ccc(NC(=O)C2c3ccccc3Oc3ccccc32)cc1 | -10 | -2 | 102 | 105
O=C(/C=C/c1ccco1)OCc1ccccc1 | 18 | . | 100 | 97
CC1CN(C(=O)Cn2nc(-c3cccc(-n4cccc4)c3)oc2=O)CC(C)O1 (configuration not stated) | -4 | -19 | 99 | 100
C=CCn1c(C)c(C(=O)OCC)c2cc(O)ccc21 | -159 | -25 | 100 | 104
O=C(CCNC(=O)NC12CC3CC(CC(C3)C1)C2)Nc1ccc(-n2cnnn2)cc1 | -6 | -7 | 99 | 94
CC(=O)Oc1cc2oc(=O)c3c(c2cc1Cl)CCC3 | -287 | . | 103 | 104
CC(=O)N1CCOc2ccc(S(=O)(=O)N3CCOc4ccccc43)cc21 | 7 | -38 | 99 | 101
Cc1cc(N2CCC(C)CC2)nc2ccc(NC(=O)CCC(=O)N3CCC(C)CC3)cc12 | 106 | -19 | 100 | 95
Cc1nn(-c2ccccc2)c2c1CC(C#N)(c1ccccn1)C1CCCN21 (configuration not stated) | -39 | 16 | 92 | 99
CC(=NC(C)C)C1=C(O)CCC1=O | 8 | . | 102 | 107
COc1ccc2c3c(ccc2c1)C(=O)CCC3 | . | 2 | 102 | 101
Cc1cc(=O)oc(C)c1C(=O)NCc1c(F)cc(F)cc1F | 8 | -22 | 101 | 98
O=S1(=O)CC=C(S(=O)(=O)c2ccccc2)C1 | 4 | -10 | 101 | 106
C=CCn1c(=O)c2c(C)c(C)sc2n2c(Nc3ccc(C(=O)OCC)cc3)nnc12 | 0 | -17 | 100 | 103
O=C(CN(Cc1ccco1)Cc1cccs1)c1ccc[nH]1 | -10 | -10 | 106 | 116
OC(c1ccccc1)c1cccc(C(F)(F)F)c1 (configuration not stated) | 1 | -17 | 99 | 100
Cn1cc(C(=O)OCC(N)=O)c2ccccc21 | -3 | -7 | 98 | 104
CC(C)(C)c1ccc(OC(=O)CCC(=O)O)cc1 | -5 | -4 | 99 | 104
O=C(COC(=O)Cc1cccc(C(F)(F)F)c1)NCc1ccccc1Cl | -7 | . | 102 | 98
CN1CCN(C(c2cccs2)N2CCN(C)CC2)CC1 | 4 | -8 | 104 | 106
COc1ccc(NC(=O)c2oc3ccccc3c2NC(=O)c2ccccc2)cc1 | 24 | -17 | 99 | 99
COC(=O)c1ccc(CN2CCN(c3ccccc3OC)CC2)cc1 | . | -14 | 106 | 112
Cn1c(=O)c2c([nH]c(=O)n2C)n(C)c1=O | 19 | 1 | 98 | 97
O=C(NC(=S)OCc1ccccc1Cl)c1ccco1 | -10 | . | 101 | 105
O=C1N=c2ccccc2=C1c1sc(Nc2nccs2)nc1O | -64 | -62 | 45 | 243
CNC(=O)/C(=C\c1ccc(Cl)cc1)NC(C)=O | 1 | . | 103 | 99

Another view of part of the listing above.
> Cn1cc(C(=O)OCC(N)=O)c2ccccc21
- Mtb MbtI inh: -3
- MenB inh: -7
- PV pol inh: 98
- PV pol inh intensity: 104
> CC(C)(C)c1ccc(OC(=O)CCC(=O)O)cc1
- Mtb MbtI inh: -5
- MenB inh: -4
- PV pol inh: 99
- PV pol inh intensity: 104
> O=C(COC(=O)Cc1cccc(C(F)(F)F)c1)NCc1ccccc1Cl
- Mtb MbtI inh: -7
- MenB inh: .
- PV pol inh: 102
- PV pol inh intensity: 98
> CN1CCN(C(c2cccs2)N2CCN(C)CC2)CC1
- Mtb MbtI inh: 4
- MenB inh: -8
- PV pol inh: 104
- PV pol inh intensity: 106

Later entries:
SMILES | Mtb MbtI inh | MenB inh | PV pol inh | PV pol inh intensity
COc1ccc(C(C(=O)NCc2cccs2)N(Cc2ccco2)C(=O)Cn2nnc(-c3cccs3)n2)cc1 (configuration not stated) | 6 | -13 | 101 | 101
Cc1cccc(-n2c(SC3CCOC3=O)nnc2-c2c[nH]c3ccccc23)c1 (configuration not stated) | -17 | -3 | 103 | 98
CC1CC(C)CN(C(=O)Cn2c(=O)n(-c3ccc(Cl)cc3)c(=O)c3c4c(sc32)CCC4)C1 (configuration not stated) | -2 | -8 | 103 | 101
CCOC(=O)c1ccc(NC(=O)Cn2cnc3c(nnn3-c3cccc(Cl)c3)c2=O)cc1 | 11 | -6 | 100 | 98
COc1ccc(OC)c(NC(=O)Cc2coc3ccc(C)cc23)c1 | 13 | -28 | 102 | 101
CCOc1ccc(OCC(=O)OCc2ncc(-c3ccccc3)o2)cc1 | 17 | -5 | 99 | 100
CC(=O)N1N=C(COc2ccc3c(c2)OCO3)OC1c1ccc(C)cc1 (configuration not stated) | -16 | 1 | 100 | 102
C=C1C(O)(c2ccccc2)C2CC[N+]1(C)CC2 (configuration not stated) | 2 | -12 | 98 | 95
O=C(COc1ccccc1)n1nc(-c2ccc(Cl)cc2)nc1NCc1ccco1 | 0 | 10 | 103 | 100
CCC(=O)N1c2ccccc2-c2nnc(SC)nc2OC1c1ccccc1 (configuration not stated) | 0 | -78 | 103 | 108
CC(C)(C)C(=O)Nc1nc2ccccc2s1 | 10 | -9 | 100 | 103
Nc1cc(N)nc(SCC(=O)N2CCCC2c2ccc3c(c2)OCCCO3)n1 (configuration not stated) | -16 | -20 | 105 | 109
CC1CCCC(C)N1C(=O)Cn1cc(/C=C2/C(=O)Nc3ccccc32)c2ccccc21 (configuration not stated) | 7 | -72 | 103 | 105
O=C1CCC(C(=O)Nc2ccc(S(=O)(=O)NCc3ccco3)cc2)=NN1 | 14 | -6 | 101 | 98
CC(C)c1ccc(NC(=S)N(Cc2ccccc2)C(C)C)cc1 | -14 | 2 | 108 | 105

Taken from above.
COc1ccc(OC)c(NC(=O)Cc2coc3ccc(C)cc23)c1 in Mtb MbtI inh is entered as 13
COc1ccc(C(C(=O)NCc2cccs2)N(Cc2ccco2)C(=O)Cn2nnc(-c3cccs3)n2)cc1 (configuration not stated) in Mtb MbtI inh is entered as 6

Following part.
SMILES | Mtb MbtI inh | MenB inh | PV pol inh | PV pol inh intensity
CCn1c(C)cc(/C=C2\SC(=Nc3cc(Cl)ccc3C)NC2=O)c1C | -17 | -14 | 101 | 112
C=CCSc1ncc(Cl)c(C(=O)Nc2ccc(S(N)(=O)=O)cc2)n1 | 5 | 3 | 102 | 103
CC(C)OC(=O)/C(C#N)=C\c1cccn1C | -2 | i | 104 | 103
CCN(CC)S(=O)(=O)c1ccc(-c2cn3cccnc3n2)cc1 | 15 | 0 | 103 | 104
Cc1cccc(C)c1N=C1Oc2ccccc2NC1(C)c1ccccn1 (configuration not stated) | -6 | -11 | 102 | 109
O=C(Cc1ccccc1)NN1CCCCC1 | 9 | 0 | 100 | 104
CN(C(=O)c1ccc2c(Cl)c3c(nc2c1)CCCC3)c1ccc(Cl)cc1 | -5 | -14 | 104 | 106
O=C(c1cc(-c2ccccc2)n[nH]1)N1CCCCC1 | 4 | -14 | 103 | 107
Cc1ccc2c(Sc3ccc(Cl)cc3)c(C(=O)NC3CCCC3)[nH]c2c1 | 4 | -15 | 102 | 110
N#CCC(=O)c1ccccc1 | -2 | . | 101 | 101
COC(=O)c1cc(C)nc(Sc2n[nH]c(-c3cc(Cl)cc(Cl)c3)n2)n1 | 8 | -29 | 103 | 106
CC(C)CNC(=O)Nc1ccccc1F | 6 | 1 | 102 | 102
Cc1ccc(Nc2ssc(=O)c2Cl)cc1C | 39 | -1 | 154 | 188
O=C(Cn1cnc(S(=O)(=O)N2CCCC2)c1)NC1CCN(Cc2ccccc2)CC1 | -5 | 4 | 98 | 102
